HPGD block: HPGD (human) dehydrogenase inhibition; Potency, µM, inactives show at the top dose activity change, negative = inhibition, actives largely listed as inhibitors; purified HPGD, NADH fluorescence kinetic, PGE2 substrate; 150,000 compounds, 4.3% hits; P15428; AID 894; active = well fitted inhibition curve with a large enough effect (not every such curve was filed as active); inconclusive = small, poorly fitted or top-dose-only effect, or another doubt; inactive = no such curve, though single readings can be large or run the other way;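 note: top concentration of the series not given in the record; plate controls included wells without enzyme; inactives centre near -10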
Target sequence (P15428 whole entry, looked up): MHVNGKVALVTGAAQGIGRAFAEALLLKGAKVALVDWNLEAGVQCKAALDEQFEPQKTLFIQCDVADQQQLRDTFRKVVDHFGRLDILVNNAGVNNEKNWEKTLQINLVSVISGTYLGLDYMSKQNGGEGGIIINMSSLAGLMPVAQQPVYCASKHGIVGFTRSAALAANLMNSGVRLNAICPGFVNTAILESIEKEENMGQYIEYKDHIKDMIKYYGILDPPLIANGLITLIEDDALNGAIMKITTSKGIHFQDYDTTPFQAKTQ
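NADH formation kinetics: reaction with 30 uM PGE2 and 1 mM NAD+ (final), 20 nM enzyme, Tris-HCl pH 8 with Tween 20, after 15 min compound preincubation at room temperature. Fluorescence change, last versus first of five reads.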
* = called active by the depositor; ? = inconclusive. % is set by controls: 0 for no effect and ±100 for the full control effect; potency is the fitted concentration of half-maximal effect.

canonical_smiles,HPGD block
COc1cccc(CNC(=O)CSCc2cnn(-c3ccccc3)c2-n2cccc2)c1OC,-6%
COC(=O)[C@@H]1C(O)[C@@H](C(=O)OC)[C@H](C)N(C)[C@@H]1C (some centres not stated),-11%
Cc1nn(Cc2cccc(C(=O)NC3CCCCC3)c2)c(C)c1Cl,-14%
CC1CCN(S(=O)(=O)c2ccc3c(c2)c(=O)c(C(=O)NCc2cccs2)cn3C)CC1,-9%
Cc1noc(C)c1CSc1nnc(-c2cccnc2)n1C1CCCCC1C (configuration not stated),-5%
Cc1cc(NC(=O)C2CCN(S(=O)(=O)c3cnc[nH]3)CC2)ccc1Br,3%
COc1ccc(OC)c(S(=O)(=O)N2Cc3ccccc3CC2C(=O)O)c1 (configuration not stated),-7%
CC1=C(C(=O)OC(C)C)C(c2ccccc2Cl)CC(=O)N1 (configuration not stated),-19%
CC(C)OC(=O)c1cccnc1SCc1cc(=O)n2ccccc2n1,-17%
Cc1cc(C)c(C(=O)COc2cccnc2[N+](=O)[O-])cc1C,-19%
Cc1cc(Cl)ccc1OCCCC(=O)NCCN1C(=O)S/C(=C\c2cccnc2)C1=O,-29%
COC(=O)c1c(NC(=O)Cc2ccccc2)sc(C)c1C,-19%
CCCCCCP(=O)(O)c1ccccc1,-1%
CCN(CC)S(=O)(=O)c1cccc(NC(=O)COC(=O)CCc2nc3ccccc3s2)c1,-18%
Cc1cc(C(=O)O)c(CCCN)s1,1%
COc1ccc(Nc2ncc(C(=O)N3CCN(c4ccccc4OC)CC3)c3ccccc23)cc1,?
O=C(/C=C/c1ccccc1)N1CCN(c2ccc([N+](=O)[O-])c(N3CCOCC3)c2)CC1,-24%
O=C1/C(=C/c2ccccc2)Oc2cc(OC(=O)N3CCOCC3)ccc21,-28%
CCCSc1nc(=O)n2cccc(C)c2n1,-16%
COc1ccc(N2CCN(C(=O)c3ccc(C)c(Cl)c3)CC2)cc1,-6%
Clc1cccc(CSC2=NCCCN2)c1,-14%
CC(C)CC[n+]1ccn(C2=C([O-])c3ccccc3C(=O)/C2=N\S(=O)(=O)c2ccccc2)c1,-10%
Cc1cc(C)n2nc(SCc3nc4ccccc4[nH]3)nc2n1,-15%
COCc1cc(C(C)=O)ccc1OC,0%
CCOc1ccccc1-n1c(SCC(=O)NCc2ccco2)nnc1-c1ccncc1,0%

Other entries
canonical_smiles,HPGD block
CC1Oc2ccccc2N(CC(=O)c2ccccc2)C1=O (configuration not stated),-13%
N#CC1=C(N)Oc2n[nH]c(-c3cccs3)c2C1C1CCCCC1 (configuration not stated),-18%
COc1ccc(S(=O)(=O)N(C)CC(=O)N2CCOCC2)cc1Cl,-12%
CC(=O)N1CCN(c2ccc(NCc3ccc(F)cc3)cc2)CC1,-6%
O=C(OCc1cc2ccccc2[nH]c1=O)c1ccccn1,?
CC1(NC(=O)N2CCCCC2)CCS(=O)(=O)C1 (configuration not stated),-2%
CC(C(=O)NC1CCCc2ccccc21)N1CCN(Cc2ccc3c(c2)OCO3)CC1 (configuration not stated),-20%
CC1Cc2ccccc2N1C(=O)CSCC(=O)O (configuration not stated),-5%
COc1ccc(OC)c2c(C)cc(N3CCCN(C)CC3)nc12,?
COc1ccc(-n2c(Cc3cccn3C)nnc2SCC(=O)N2CCOCC2)cc1,-5%
CCNCC(=O)N1c2ccccc2CCc2ccc(NC(C)=O)cc21,-11%
COc1ccc(-n2cnc3c(sc4nccc(N(C)C)c43)c2=O)cc1,-38%
O=C(Oc1ccc(Cl)c2cccnc12)C12CC3CC(CC(C3)C1)C2,-8%
O=C(O)CCCC(=O)NCCc1ccncc1,-3%
Cc1nn(C)cc1CNC(=O)c1ccc(F)cc1,-4%
CCOC(=O)c1c(NC(=O)CN2C(=O)NC3(CCC(CC)CC3)C2=O)sc(C)c1-c1ccc(C)cc1 (configuration not stated),-17%
COc1c(OC(C)=O)ccc(/C=C/c2ccc3cccc(OCc4ccccc4)c3n2)c1[N+](=O)[O-],-8%
O=C(CSc1nnc(-c2csc3c2CCCC3)o1)Nc1ccccc1,-12%
CC1CCCCC1NC(=O)c1nnc(Cc2ccc(Cl)cc2)o1 (configuration not stated),-11%
CCn1c2ccccc2c2cc(NC(=O)Cc3ccc(S(=O)(=O)N4CCOCC4)s3)ccc21,-7%
CCOC(=O)CSc1ccc(S(=O)(=O)N2CCC(C)CC2)cc1[N+](=O)[O-],-7%
Cc1ccccc1-n1c(SCC(=O)c2c(N)n(C)c(=O)n(C)c2=O)nnc1-c1cccnc1,-21%
O=[N+]([O-])c1ccc(-c2nnc(-c3ccccc3)c(N3CCOCC3)n2)cc1,2%
O=C(O)c1cc2n(n1)C(C(F)(F)F)CC(c1ccccc1)N2 (configuration not stated),-5%
COCCn1c(-c2ccccc2)nc2ccccc21,?

The listing continues.
canonical_smiles,HPGD block
Cc1[nH][nH]c(=O)c1C(c1ccc(-c2ccc(Cl)c(Cl)c2)o1)c1c(C)[nH][nH]c1=O,?
CSc1cc(-c2ccccc2)n(Cc2ccc(Cl)cc2Cl)c(=O)c1C#N,-25%
O=C(OCC(COC(=O)c1ccccc1)(COC(=O)c1ccccc1)COC(=O)c1ccccc1)c1ccccc1,-15%
O=C(CCN1C(=O)c2ccccc2C1=O)Nn1cnnc1,-3%
CCCNS(=O)(=O)c1ccc(CCC(=O)Nc2ccc3c(c2)OCCO3)cc1,-13%
COc1cc(OC)c(C(=O)NC2CC(C)(C)NC(C)(C)C2)cc1OC,-13%
Cc1oc2c(CN3CCCC3)c(O)ccc2c(=O)c1-c1ccc(Br)cc1,?
CCOC(=O)/C(C#N)=C/c1ccc(-c2ccsc2C(=O)OC)o1,-21%
CCOC(=O)c1cc2c(=O)n3ccccc3nc2n(Cc2ccccc2)c1=N,?
CCCC(=O)OCC(=O)Nc1ccc(N=Nc2ccccc2)cc1,-14%
O=C(CO/N=C/c1ccccc1)N1c2ccccc2Oc2ccccc21,-21%
CCCCOc1ccc(NC(=O)[C@@H]2CCCN2C(=O)C2CCN(S(=O)(=O)c3ccc(C)cc3)CC2)cc1,-8%
CCOCCCn1c(-c2ccc(Cl)cc2)n[nH]c1=S,-22%
O=C(NC(=S)N1CCCc2ccccc21)c1ccc(Cl)cc1,?
CSc1ccc(CN(C)CC(=O)Nc2ccc(C)cc2Br)cc1,-4%
CCOC(=O)N1CCC(NC(=O)c2ccc3snnc3c2)CC1,0%
O=[N+]([O-])c1ccccc1S(=O)(=O)Oc1ccccc1/C=N/n1cnnc1,18µM*
O=C(O)C1CC=CCC1C(=O)N1CCc2ccccc21 (configuration not stated),-4%
Cc1ccc(Cl)c2c1NC(=O)C2(O)CC(=O)c1ccc(F)cc1 (configuration not stated),-4%
COC(=O)N[C@H](c1ccccc1)[C@@]1(C)C[C@@H]1[C@@H](C)C(=O)Nc1ccc2ccccc2c1,-23%
CCCOc1ccccc1C1NC(=O)NC(C)=C1C(=O)OCCOC (configuration not stated),2%
CCNC(=S)N(CCc1c(C)[nH]c2ccc(C)cc12)Cc1cc(OC)c(OC)c(OC)c1,-7%
Cc1nnc(NC(=O)CC(NC(=O)C(F)(F)F)c2ccccc2)s1 (configuration not stated),-15%
CCCCOC(=O)Nc1sc2c(c1C(=O)OC)CCC2,-10%
O=C(COC(=O)C1=COCCO1)Nc1ccc2c(c1)OCO2,-15%

Four compounds from above, arranged by molecular weight, falling.
canonical_smiles,HPGD block
CCCCOc1ccc(NC(=O)[C@@H]2CCCN2C(=O)C2CCN(S(=O)(=O)c3ccc(C)cc3)CC2)cc1,-8%
COC(=O)N[C@H](c1ccccc1)[C@@]1(C)C[C@@H]1[C@@H](C)C(=O)Nc1ccc2ccccc2c1,-23%
CCCOc1ccccc1C1NC(=O)NC(C)=C1C(=O)OCCOC (configuration not stated),2%
CCOCCCn1c(-c2ccc(Cl)cc2)n[nH]c1=S,-22%

The listing continues:
canonical_smiles,HPGD block
CN(CC(=O)Nc1ccc(Cl)cc1)C(=O)c1cccc(S(=O)(=O)N(C)C)c1,-8%
Cc1ccc(S(=O)(=O)Nc2ccc(-c3nc4cc(NS(=O)(=O)c5ccc(C)cc5)ccc4o3)cc2)cc1,?
COc1ccc(NC(=O)CCOc2ccccc2)cc1,-23%
CCOC(=O)Nc1sc(C)nc1-c1ccccc1,-9%
CC(=O)Nc1cc(NC(C)=O)c(CC(C)C)s1,-11%
O=C(CN1C(=O)c2ccccc2C1=O)Nc1nc(-c2cccc([N+](=O)[O-])c2)cs1,-10%
CSCCC(NC(=O)C12CC3CC(CC(C3)C1)C2)C(=O)OCC(=O)c1ccc(C)cc1 (configuration not stated),-6%
O=C(O)CCn1cnc2c(=S)nc[nH]c21,0%
c1ccc(-n2ncc3c(NCC4CCCO4)ncnc32)cc1 (configuration not stated),-7%
C=C(C)C(=O)OCC(C)O (configuration not stated),-3%
Cc1ccc(-c2n[nH]c(=O)c3ccccc23)cc1S(=O)(=O)NCCN1CCOCC1,13µM*
COc1ccccc1NC(=O)Nc1ccc2c(c1)OCCO2,-4%
CCN(Cc1ccccc1)S(=O)(=O)c1ccc(S(=O)(=O)N2CCN(CCC#N)CC2)cc1,-9%
O=C(OC1CSc2nc3ccccc3n2C1)c1ccco1 (configuration not stated),1%
Cc1cc(Cl)ccc1OCCCC(=O)N/N=C/c1cccc([N+](=O)[O-])c1,0%
Cc1ccccc1-n1c(-c2csc(C)c2C)n[nH]c1=S,-25%
CC1(C)C(=O)C=C[C@]2(C)C1CC(=O)[C@]1(C)C2CC[C@@]2(C)C(c3ccoc3)OC(=O)C3O[C@@]321 (some centres not stated),-5%
Cc1ccccc1OCC(=O)NN1CCN(C)CC1,-1%
COc1ccc(Cn2c(C)c(C)c(C#N)c2NC(=O)Nc2cccc(C)c2)cc1,-4%
Cn1c(SCC(=O)NCC2CCCO2)nnc1-c1c[nH]c2ccccc12 (configuration not stated),-7%
O=[N+]([O-])c1ccc(NCCCNS(=O)(=O)c2ccccc2)c(Cl)c1,-4%
CCOc1ccccc1C(=O)N(C)Cc1cc2cc(OC)ccc2[nH]c1=O,?
Nc1nc(N)c2[nH]cnc2n1 (tested in a mixture with another compound),-9%
COc1ccccc1OCC(=O)c1[nH]c(C)c(C(C)=O)c1C,-9%
O=C(CCN1C(=O)c2ccccc2C1=O)N1CCN(Cc2ccccc2)CC1,1%

(next part)
canonical_smiles,HPGD block
COc1ccc2[nH]c(C)c(CCN3C(=O)C4CC=CCC4C3=O)c2c1 (configuration not stated),-2%
O=C(Nc1ccccc1)N1CCC2(CC1)CCN(C(=O)c1ccco1)CC2,1%
Cc1csc2ncc(C(=O)N3CCCc4ccccc43)c(=O)n12,-16%
COC(=O)[C@@]1(Cc2ccc(F)cc2)[C@H]2c3cc(C(=O)N4CCCC4)n(Cc4cccc5ccccc45)c3C[C@H]2CN1C(=O)c1ccccc1,-11%
CCCC(=O)c1ccc2c(c1)OCCO2,28µM*
O=C1CC(N2CCN(Cc3ccccc3)CC2)C(=O)N1CCc1ccccc1 (configuration not stated),-5%
CC(C)(C)NC(=O)Cn1nnc(-c2cccs2)n1,-3%
O=C(O)CCCCCCC1C(=O)NC(=O)N1CCC(O)C1CCCCC1 (configuration not stated),-15%
CNS(=O)(=O)c1ccc(Oc2ccc(S(=O)(=O)NC)cc2)cc1,-6%
Cn1c(SCc2c(Cl)cccc2Cl)nnc1-c1cccs1,-19%
CCCc1nc(SCC(=O)N2CCCc3ccccc32)c2c(=O)n(C)c(=O)n(C)c2n1,?
COc1cccc(-c2cc3nc4c(c(N5CCC6(CC5)OCCO6)n3n2)CCCC4)c1,?
CN1CCN(c2ccc([N+](=O)[O-])cc2/C=N/NC(=O)c2ccc(F)cc2)CC1,-1%
CC(=O)Nc1ccc(S(=O)(=O)c2ccc(N)cc2)cc1,-6%
Cc1ccc(OC(=O)COc2ccccc2)c(-n2nc3ccccc3n2)c1,?
Cc1ccc(SCc2ccc(C(=O)NCc3cccnc3)cc2)cc1,?
CCC(C(=O)OC)n1cnc2c(cnn2-c2ccc(Cl)cc2)c1=O (configuration not stated),-1%
CCC1=C2CC[C@H]3C(=O)N(CC(=O)OC)C(=O)[C@H]3[C@H]2[C@@]2(C)C(=NCCc3c[nH]c4ccccc34)OC(=O)N2C1=O,-2%
COc1cc(OC)c(OC)cc1CN(C)CCc1ccccn1,3%
O=C(NCc1ccccc1F)c1ccc2c(c1)OCO2,?
CC(=O)c1ccc(Sc2ccccc2)cc1,?
O=C(CSc1nnnn1C1CCCCC1)Nc1cccc(NC(=O)c2ccco2)c1,-14%
CC(C)Nc1nnc(SCC(=O)c2c[nH]c3ccccc23)s1,-16%
Cc1noc(C)c1COC(=O)CN(C)S(=O)(=O)c1ccc(Cl)cc1,-6%
COc1ccc(N2CCN(c3nc4c(c(=O)n(C)c(=O)n4C)n3CCCc3ccccc3)CC2)cc1,-12%

An excerpt from above in order of their number in HPGD block, highest first:
Molecule | HPGD block
CCCC(=O)c1ccc2c(c1)OCCO2 | 28µM*
O=[N+]([O-])c1ccccc1S(=O)(=O)Oc1ccccc1/C=N/n1cnnc1 | 18µM*
Cc1ccc(-c2n[nH]c(=O)c3ccccc23)cc1S(=O)(=O)NCCN1CCOCC1 | 13µM*

Bioassay records: PubChem, National Center for Advancing Translational Sciences (NCATS)

A portion of the library (hit frequency here may not be typical).
